Sa RN4220 lethal – S. aureus RN4220 growth inhibition | OD600, 16 h | inhibition, % (concentration not given with the values) | hit rate 0.33% among 330,000;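 active means z-score of -3 or lower and OD600 up to 0.18 on both plates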;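 further: plate controls were untreated cells for no effect and reference antibiotic for full effect; stock transfer was 100 nL into about 80 µL; one replicate is shown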
Autofluor counter – compound fluorescence in toxin protease inhibitor counterscreen; AID 624483; fluorescence intensity (test concentration not listed); compound autofluorescence counterscreen, microsphere flow cytometry; stronger effect = higher value; hit rate 3.1% among 360,000;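 active means at least 3 SD above the mean of all compounds, about 16000 in these data; inconclusive means too few beads counted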;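 further: 100 nL of 1 mM stock went into each well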
ugtP null kill – compounds lethal to S. aureus RN4220 ugtP deletion mutant | OD600 growth, 16 h; some inactives read as strong as hits | growth inhibition, % (concentration not given with the values) | hit rate 0.54% among 330,000;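 active means z-score under -3 and OD600 up to 0.15 on both plates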;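 further: plate controls were untreated wells for no effect and antibiotic for full effect; wells of about 80 µL received 100 nL stock; the first replicate is given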
PrP UTR inh – suppresses PrP 5' UTR mRNA reporter expression; cell-based PrP 5' UTR mRNA reporter, plate reader; inhibition, % (concentration not given with the values); hit rate 0.35% among 340,000; AID 488862;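 active means every replicate at 50% or more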;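 further: 0 = median of the neutral control wells; tested in H4 reporter cells; numbers are from one replicate; inactives centre near -14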
Mtb hypoxia inh – Mtb hypoxia fluorescent reporter inhibition | M. tuberculosis hypoxia-regulated fluorescent reporter, fluorescence | fluorescence inhibition, % (test concentration not listed) | hit rate 0.1% among 300,000 | AID 1159583;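 active means 35 to 45% if threefold the growth effect, above 45% if 1.5-fold the growth effect; inactive means the rest, general growth blockers included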;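 further: wells of about 50 µL received 100 nL stock; 0% = vehicle wells and 100% = reference inhibitor wells; whole bacteria with a GFP reporter of the hypoxia response; strong numbers were not always called active; many hits fall short of the cut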
BJeLR lethal – BJeLR cell viability loss. BJeLR (HRASV12) viability, CellTiter-Glo ATP luminescence, 48 h; reference of the scale not given here. inhibition, % (no concentration beside the values). hit rate 0.17% among 300,000;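 active means replicate mean above 50%; inconclusive means above 50% but judged a plate artefact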;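 further: 50 nL library stock added to about 25 µL; numbers are from one replicate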
Mtb hypoxia inh growth – recorded beside Mtb hypoxia inh, whose call it bears; growth inhibition, %; measured here: M. tuberculosis growth (absorbance);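 0% = vehicle and 100% = reference antibiotic; read after six days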
Starred values were filed as active, the others as inactive; ? = inconclusive; . = no result given.

Start of the listing, in advance:
SMILES	Sa RN4220 lethal	Autofluor counter	ugtP null kill	PrP UTR inh	Mtb hypoxia inh	Mtb hypoxia inh growth	BJeLR lethal
COc1ccc(C(=O)Nc2ccc(C(F)(F)F)n(C)c2=O)cc1	2.8	2514	-3	-51	4	14	2
O=C(/C=N/O)Nc1ccc(F)cc1	.	3479	.	-21	.	.	1
CCOc1ccc(C(=O)Nc2cc(C)c3c(=O)oc4ccccc4c3n2)cc1	8.7	6303	12	-18	6	6	3
COc1ccc(OC)c(C(c2c(O)nc(SC)[nH]c2=O)c2c(O)nc(SC)[nH]c2=O)c1	6.8	4133	10	-24	13	4	-1
c1cn(C23CC4CC(CC(C4)C2)C3)cn1	3.1	10627	-4	6	14	14	-3
CCN(CC)C(=O)[C@H]1C[C@H](CC(=O)NCCC2=CCCCC2)C(=O)N2CCc3c([nH]c4ccc(Cl)cc34)[C@]12C	-0.6	3088	-23	-11	5	3	.
O=C(C[n+]1cc(-c2ccccc2)n2c1CCC2)Nc1nc(-c2ccccc2)cs1	-10	2448	-17	-10	-6	-1	-5
Clc1cccc(Cl)c1C1Nc2cccc3cccc(c23)N1	.	3636	.	-3	.	.	-7
O=C(Cc1ccccc1)NS(=O)(=O)c1ccc(N=NN2CCOCC2)cc1	1.8	3549	5	5	4	-1	.
NC(=O)CN1CCOCCOCCN(CC(N)=O)CCOCCOCC1	11	3613	7	0	16	8	-3
NC(=O)C1CCN(c2ccc(S(=O)(=O)N3CCCCC3)cn2)CC1	4.8	3452	9	-8	7	-2	-1
CCOC(=O)/C(C#N)=C1/C=Cc2ccccc2N1CC	3.5	5269	3	-7	.	.	-1
NCCCCC1NC(=O)c2cc([N+](=O)[O-])cc(I)c2SCC(C(N)=O)NC(=O)C(Cc2ccc(O)cc2)NC1=O (stereo unspecified)	-1.0	.	-3	.	-12	9	.
CC1CCCN(C(=O)C2CCN(S(=O)(=O)c3cccc4cccnc34)CC2)C1 (stereo unspecified)	2.9	5428	-4	-29	.	.	8

The list itself, repeating the preview:
SMILES	Sa RN4220 lethal	Autofluor counter	ugtP null kill	PrP UTR inh	Mtb hypoxia inh	Mtb hypoxia inh growth	BJeLR lethal
COc1ccc(C(=O)Nc2ccc(C(F)(F)F)n(C)c2=O)cc1	2.8	2514	-3	-51	4	14	2
O=C(/C=N/O)Nc1ccc(F)cc1	.	3479	.	-21	.	.	1
CCOc1ccc(C(=O)Nc2cc(C)c3c(=O)oc4ccccc4c3n2)cc1	8.7	6303	12	-18	6	6	3
COc1ccc(OC)c(C(c2c(O)nc(SC)[nH]c2=O)c2c(O)nc(SC)[nH]c2=O)c1	6.8	4133	10	-24	13	4	-1
c1cn(C23CC4CC(CC(C4)C2)C3)cn1	3.1	10627	-4	6	14	14	-3
CCN(CC)C(=O)[C@H]1C[C@H](CC(=O)NCCC2=CCCCC2)C(=O)N2CCc3c([nH]c4ccc(Cl)cc34)[C@]12C	-0.6	3088	-23	-11	5	3	.
O=C(C[n+]1cc(-c2ccccc2)n2c1CCC2)Nc1nc(-c2ccccc2)cs1	-10	2448	-17	-10	-6	-1	-5
Clc1cccc(Cl)c1C1Nc2cccc3cccc(c23)N1	.	3636	.	-3	.	.	-7
O=C(Cc1ccccc1)NS(=O)(=O)c1ccc(N=NN2CCOCC2)cc1	1.8	3549	5	5	4	-1	.
NC(=O)CN1CCOCCOCCN(CC(N)=O)CCOCCOCC1	11	3613	7	0	16	8	-3
NC(=O)C1CCN(c2ccc(S(=O)(=O)N3CCCCC3)cn2)CC1	4.8	3452	9	-8	7	-2	-1
CCOC(=O)/C(C#N)=C1/C=Cc2ccccc2N1CC	3.5	5269	3	-7	.	.	-1
NCCCCC1NC(=O)c2cc([N+](=O)[O-])cc(I)c2SCC(C(N)=O)NC(=O)C(Cc2ccc(O)cc2)NC1=O (stereo unspecified)	-1.0	.	-3	.	-12	9	.
CC1CCCN(C(=O)C2CCN(S(=O)(=O)c3cccc4cccnc34)CC2)C1 (stereo unspecified)	2.9	5428	-4	-29	.	.	8
CCN(CC)C(=O)C(=O)c1cc(C)n(-c2ccc(F)cc2)c1C	3.1	2047	12	-8	1	9	-1
CCOC(=O)C1=C(c2ccc(O)cc2)NC(=O)NC1C (stereo unspecified)	2.0	5286	3	.	5	-2	-8
CCOC(=O)N1CCC(NC(=O)C(CC(C)C)NC(=O)C2CCCCC2)CC1 (stereo unspecified)	2.1	8424	3	-17	7	4	-8
Cc1c(Cl)cccc1NC(=O)N1CCN(C(=O)c2ccco2)CC1	.	4236	.	-2	.	.	-13
COc1cccc(NS(=O)(=O)c2ccc3c(c2)NC(=O)CC(=O)N3)c1	1.3	5326	5	-6	-2	2	3
O=C(NN=C1CCc2ccccc21)c1ccncc1	2.5	.	3	.	0	1	.
O=C(OCc1ccc2c(c1)OCO2)c1cccc(S(=O)(=O)N2CCCCC2)c1	3.5	9070	5	-11	-2	5	7
CCCNC(=O)COc1coc(CN2CCN(C(=O)c3ccco3)CC2)cc1=O	-1.1	.	2	-23	-17	2	5
O=C1OCC(CC2=C(O)C(=O)OC2)=C1O	2.6	3906	5	-14	21	8	.
Cc1ccc(S(=O)(=O)NC2c3cccc4cccc(c34)C2Sc2n[nH]c(N)n2)cc1 (stereo unspecified)	.	2537	.	-29	.	.	2
COc1ccc(CCN2C(=O)CC(N3CCN(c4ccccn4)CC3)C2=O)cc1OC (stereo unspecified)	4.0	3022	2	-17	.	.	-6

Continuation.
SMILES	Sa RN4220 lethal	Autofluor counter	ugtP null kill	PrP UTR inh	Mtb hypoxia inh	Mtb hypoxia inh growth	BJeLR lethal
CS(=O)(=O)c1ccc(Cl)c(NC(=O)CSc2nncn2-c2ccccc2)c1	0.3	6259	5	-13	-4	-4	0
COc1ccc(/C(C)=N/NC(=O)CNC(=O)C2COc3ccccc3O2)c(OC)c1 (stereo unspecified)	.	6204	.	9	.	.	-3
O=C(NCCc1ccccc1)C1CCN(Cc2ccccc2F)CC1	4.8	2024	8	-13	9	9	4
Cc1ccc([N+](=O)[O-])cc1N=Nc1c(-c2ccc([N+](=O)[O-])cc2)[nH]n(C(N)=S)c1=O	21	3439	0	33	15	12	29
COc1cc(C(=O)Oc2ccccc2C=NNC(=O)c2ccc(Cl)cc2)cc(OC)c1OC	-1.2	.	-3	.	1	-4	.
CCc1nc(SCc2cccnc2)c2c(=O)n(C)c(=O)n(C)c2n1	.	4446	.	-4	.	.	-3
CCSc1ncc(C)cc1[N+](=O)[O-]	7.6	2801	9	-10	5	2	10
CCOc1ccc2nc(SC(C)C(N)=O)[nH]c2c1 (stereo unspecified)	2.3	9437	-1	-21	-2	-4	2
CCn1c2ccc(C)cc2c2nnc(SCCN3CCCCC3)nc21	1.0	4443	9	-25	4	1	-3
Cc1ccc2c(c1)N(Cc1cccc(Cl)c1)C(=O)c1cccnc1O2	10	2467	15	-39	2	-1	-2
NC(=S)NC1CC2C=CC1C2 (stereo unspecified)	3.2	.	2	-15	4	17	-2
CS(=O)(=O)N1CCc2nc(-c3ccccc3)sc2C1	2.8	2955	-1	-51	6	2	-4
COc1cc(C2/C(=C(/O)c3ccc(OCC(C)C)cc3)C(=O)C(=O)N2CCN(C)C)ccc1O (stereo unspecified)	7.7	8582	14	-27	-1	5	-1
COc1cc(OC)c(N2CC(C(=O)Nc3cccc(C(=O)NC4CC4)c3)CC2=O)cc1Cl (stereo unspecified)	4.3	?	10	-22	10	2	.
O=C(Nc1ccc(N2CCCCC2)c(Cl)c1)c1cccnc1	0.1	5714	16	-63	1	-4	20
COC(=O)c1ccc(C2c3c(oc4ccc(F)cc4c3=O)C(=O)N2CCO)cc1 (stereo unspecified)	0.0	2702	-7	-17	.	.	-14
CCNc1ccc2c(Cl)cc(=O)oc2c1	1.9	2446	-2	0	5	-8	6
CCN(CC)S(=O)(=O)c1ccc(Cl)c(NC(=O)c2ccccc2C)c1	-4.6	4282	-5	-35	.	.	6
CC(=O)c1cccc(CN2CCc3ccc(NC(=O)C4CCCO4)cc3C2)c1 (stereo unspecified)	-3.3	6142	3	-11	3	5	5
O=C(COC(=O)c1cc[n+]([O-])cc1)Nc1cc([N+](=O)[O-])ccc1Cl	0.4	4916	2	-10	0	5	4
CC(C)c1onc(C(=O)NCc2ccc(F)cc2)c1[N+](=O)[O-]	10	2574	15	-36	13	5	-6
COc1ccc(F)c(CN2CCC(n3nccc3NC(=O)CCCc3ccccc3)CC2)c1	1.1	2875	3	-12	1	2	4
COc1ccc(CNC(=O)CC(C)=NNC(=O)c2cnccn2)cc1	1.6	.	2	.	0	1	.
CC(=O)N1CC2(CC(=O)OC(C)C)CN(C(C)=O)CC(CC(=O)OC(C)C)(C1)C2=O	-7.1	2878	1	-27	15	15	-9
Cc1cccc(C(=O)Oc2ccccc2C=NNC(=O)c2ccc(NC(=O)C(C)(C)C)cc2)c1	-3.9	.	-6	.	1	6	.

Continuation:
SMILES	Sa RN4220 lethal	Autofluor counter	ugtP null kill	PrP UTR inh	Mtb hypoxia inh	Mtb hypoxia inh growth	BJeLR lethal
O=C(CSc1nnc(-c2ccccc2)n1Cc1ccco1)Nc1ccc(S(=O)(=O)N2CCCC2)cc1	3.3	7252	4	.	8	6	-7
CCCc1ncc(CN2CCC(C(=O)Nc3cccc(-c4cscn4)c3)CC2)cn1	1.3	4219	1	-8	8	3	12
O=C(N/N=C/C=C\c1ccccc1[N+](=O)[O-])c1ccco1	.	3334	.	-12	.	.	9
CCCCN(C)CCNC(=O)C(=O)c1c(C)[nH]c2ccccc12	7.5	3960	2	-1	3	6	3
CCOC(=O)NN1C(=O)c2ccccc2NC1c1ccc(OC)c(OC)c1 (stereo unspecified)	5.6	4282	12	-11	2	2	-5
CCc1cc2c(NCCC(=O)O)ncnc2s1	4.4	4321	4	-17	.	.	-1
CCOC(=O)CC(NC(=O)Cc1cccs1)c1ccccc1Cl (stereo unspecified)	0.9	4194	13	-16	14	2	-1
CCCCOc1ccc(C2C(C(=O)c3ccc(C)o3)=C(O)C(=O)N2Cc2ccco2)cc1 (stereo unspecified)	.	5598	.	-18	.	.	-11
O=S1(=O)CCOC[C@H](Cc2ccccc2)N1Cc1cccc(Cl)c1	.	3712	.	5	.	.	8
CC(=NNC(=O)CSCc1ccc([N+](=O)[O-])cc1)c1cccc(Br)c1	-9.1	.	-11	.	11	6	.
Cc1cccc(NC(=S)NNC(=O)c2csc3c2CCCC3)c1	5.3	16967*	-21	-25	4	9	0
Cc1ccc2cccc(OCC(=O)NCc3ccco3)c2n1	3.1	6054	1	-41	6	7	-2
c1ccc(-c2csc(-c3ccc(-c4csnn4)cc3)n2)cc1	2.3	4689	-3	-77	0	1	6
CCOC(=O)c1cnc2c(C(F)(F)F)cccc2c1NCCCN1CCOCC1	5.4	3831	3	-9	-3	-8	6
CCOC(=O)c1c(C)[nH]c(C(=O)/C(C#N)=C/c2ccc(OC)c(OC)c2)c1C	3.0	2656	6	-28	9	4	4
COc1cc(C2/C(=C(\O)c3ccc4c(c3)CC(C)O4)C(=O)C(=O)N2CCCn2ccnc2)cc(OC)c1OC (stereo unspecified)	2.3	6091	-1	6	-4	-5	-21
CC(C)(C)NC(=O)/C=C/c1cccc(C(F)(F)F)c1	.	8780	.	-13	.	.	10
O=C(NN=Cc1sc(N2CCOCC2)nc1-c1ccccc1)c1cccc(S(=O)(=O)N2CCCC2)c1	2.0	.	4	.	-14	3	.
Cn1c(SCc2ccccc2)nnc1-c1ccc2c(c1)OCO2	3.8	4792	5	-30	.	.	2
CC1CN(C(=O)c2cccc(COc3ccc(Br)cc3)c2)CC(C)O1 (stereo unspecified)	-6.3	2423	3	-53	8	-10	-24
CCn1c(C)cs/c1=N\C(=S)Nc1ccccc1C	.	2001	.	-10	.	.	-4
COc1ccc(N2CCN(C(=O)CCCn3nnnc3CN3CCOCC3)C(C)C2)cc1 (stereo unspecified)	0.0	6046	1	-9	1	1	2
CSc1ccc(/C=C/c2cc(=O)c3ccccc3[nH]2)cc1	-7.6	2587	-2	-5	7	-4	1

Compound activity as filed in PubChem.
